High-throughput results as filed in PubChem BioAssay.
HPGD inh – HPGD (human) dehydrogenase inhibition; AID 894; Potency, µM, for inactives: at the highest dose activity change, negative = inhibition, most hits filed as inhibitors; purified HPGD, NADH fluorescence kinetic, PGE2 substrate; 4.3% of 150,000 active; active = well fitted inhibition curve with a large enough effect (not every such curve was filed as active); inconclusive = small, poorly fitted or top-dose-only effect, or another doubt; inactive = no such curve, though single readings can be large or run the other way;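 note: top concentration of the series not given in the record; plate controls included wells without enzyme; inactives centre near -10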
Target sequence (P15428 whole entry, looked up): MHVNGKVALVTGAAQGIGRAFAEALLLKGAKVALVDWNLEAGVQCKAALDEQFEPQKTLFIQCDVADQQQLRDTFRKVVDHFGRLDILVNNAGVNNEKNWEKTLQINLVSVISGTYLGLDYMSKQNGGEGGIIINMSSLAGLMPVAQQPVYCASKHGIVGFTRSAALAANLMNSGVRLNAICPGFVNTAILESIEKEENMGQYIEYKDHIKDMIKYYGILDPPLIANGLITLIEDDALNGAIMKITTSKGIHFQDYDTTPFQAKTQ
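NADH formation kinetics: reaction with 30 uM PGE2 and 1 mM NAD+ (final), 20 nM enzyme, Tris-HCl pH 8 with Tween 20, after 15 min compound preincubation at room temperature. Fluorescence change, last versus first of five reads.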
* marks the source's active call; other numbers are inactive results; ? = inconclusive; & = joins results of further samples. % is set by controls: 0 for no effect and ±100 for the full control effect; potency is the fitted concentration of half-maximal effect.

Start of the listing, in advance (3 entries):
SMILES	HPGD inh
CCCC(C)C(=O)NCc1ccc2c(c1)OCO2 (stereo not drawn)	?
Cc1ccc(C2(C)NC(=O)N(CC(=O)Nc3c(C)n(C)n(-c4ccccc4)c3=O)C2=O)cc1 (stereo not drawn)	5%
O=C(Cc1coc2ccc3ccccc3c12)NC1CCCc2ccccc21 (stereo not drawn)	-16%

The listing, from the first entry:
SMILES	HPGD inh
CCCC(C)C(=O)NCc1ccc2c(c1)OCO2 (stereo not drawn)	?
Cc1ccc(C2(C)NC(=O)N(CC(=O)Nc3c(C)n(C)n(-c4ccccc4)c3=O)C2=O)cc1 (stereo not drawn)	5%
O=C(Cc1coc2ccc3ccccc3c12)NC1CCCc2ccccc21 (stereo not drawn)	-16%
CCN1CCN(C(C(=O)NC2CCCCC2)c2ccc(Cl)cc2)CC1 (stereo not drawn)	5%
CSCCC(NS(=O)(=O)c1ccccc1F)C(=O)OCc1ccccc1Cl (stereo not drawn)	-13%
CCN(CC)CCNC1=CC(=O)OC12CCCCC2	-1%
N#Cc1ccccc1NC(=O)COC(=O)c1ccc(S(=O)(=O)N2CCCC2)cc1	-2%
O=C(CN1CCN(c2ccccc2F)CC1)N1N=CCC1c1ccccc1 (stereo not drawn)	0%
CSc1ccc2c(c1)C(N1CCN(C)CC1)Cc1ccccc1S2 (stereo not drawn)	-6%&-11%
O=C(CO/N=C/c1ccc(OC(F)F)cc1)N1CCc2ccccc21	-2%
Cc1nn(-c2ccccc2)c(C)c1/C=N/NC(=O)CSc1nc2ccccc2c(=O)n1-c1ccc(Br)cc1	-8%
CCOC(=O)N1CCN(Cc2nc(-c3ccc(C)cc3)no2)CC1	-8%
C=CCC1(O)C(=O)N2C(=C1C(=O)OCC)c1ccc3ccccc3c1CC2(C)C (stereo not drawn)	-2%
CCOCCCNC(=O)CN1CCN(c2ccc(F)cc2)CC1	1%
COc1c(Cl)cc(Cl)cc1C(=O)Nc1ccc(NC(=O)c2cccs2)cc1	-12%
CCOc1ccc2nc(SCC(=O)N3c4ccccc4Sc4ccccc43)sc2c1	-9%
Nc1ccc(S(=O)(=O)c2ccc(NC(=O)c3cccnc3)cc2)cc1	-8%
COc1ccc(N2C(=O)C3CC=C(Cl)CC3C2=O)cc1 (stereo not drawn)	-21%
CCn1nc(C)c(C(=O)Nc2cc(Oc3cc(C)cc(C)c3)cc([N+](=O)[O-])c2)c1C	-25%
CCn1cc([N+](=O)[O-])c(C(=O)N2CCOCC2)n1	-11%
CCOC(=O)c1ccc(S(=O)(=O)N2CCC(C(=O)OCC)CC2)cc1	-12%
Cc1cc(C)c(C#N)c(N2CCOCC2)n1	?
O=S(=O)(c1ccc(S(=O)(=O)N2CCN(Cc3ccccc3)CC2)cc1)N1CCOCC1	5%
O=S(=O)(c1cccs1)N1CCCc2cccc(O)c21	13µM*
CCN(CC)C(=O)c1cc(-c2ccccc2OC)on1	?
CC1(C)CC(=O)C(C=NCCN2CCN(C(=S)Nc3ccccc3)CC2)=C(O)C1	-18%
NC(=O)[C@@H]1CCCCNc2c(F)cc([N+](=O)[O-])cc2C(=O)N[C@@H](CC(=O)O)C(=O)NCC(=O)N1	-9%
CCN(CC)C(=O)C1=C(C)NC(=S)NC1c1cn(-c2ccccc2)nc1-c1ccc(Cl)cc1 (stereo not drawn)	-15%
Cn1c(=O)c2c(nc(Br)n2Cc2ccc3ccccc3c2)n(C)c1=O	-9%
CCn1c2ccccc2c2cc(NC(=O)c3ccc(Br)o3)ccc21	4.5µM*
CC1CC(C)CN(C(=O)CSC2=Nc3ccccc3C3=NC(Cc4c[nH]c5ccccc45)C(=O)N23)C1 (stereo not drawn)	-5%
CCOC(=O)c1ccc(S(=O)(=O)n2c(CN3CCCCC3)nc3ccccc32)cc1	-16%
N#Cc1ccc(CN2CCC3(CC2)CCN(C(=O)c2ccco2)CC3)cc1	-2%
CC1CC=C2C(C#N)=C(N)C(C#N)(C#N)C(c3cccs3)C2C1 (stereo not drawn)	-10%
O=C(Nc1ccc([N+](=O)[O-])cc1)c1nc[nH]c1C(=O)NC1CCCCC1	-2%
O=c1cc(N2CCOCC2)oc2c(-c3ccccc3)cccc12	-21%&-16%
CCN(CC)CCOC(=O)c1c(C)n(C)c2ccc(OC)cc12	-2%
CC(C)CCNCC1OCc2ccccc2CO1	-14%
COc1ccc(C)cc1NS(=O)(=O)c1ccc(NS(=O)(=O)c2ccc(NC(C)=O)cc2)cc1	-13%
Cc1ccnc2c1NC(=O)c1cccnc1N2C1CC1	-3%&-7%

Sorted by length of the SMILES (largest number first): 5 of the compounds above.
SMILES	HPGD inh
CC1CC(C)CN(C(=O)CSC2=Nc3ccccc3C3=NC(Cc4c[nH]c5ccccc45)C(=O)N23)C1 (stereo not drawn)	-5%
CCn1c2ccccc2c2cc(NC(=O)c3ccc(Br)o3)ccc21	4.5µM*
O=c1cc(N2CCOCC2)oc2c(-c3ccccc3)cccc12	-21%&-16%
CCN(CC)C(=O)c1cc(-c2ccccc2OC)on1	?
Cc1ccnc2c1NC(=O)c1cccnc1N2C1CC1	-3%&-7%

More structures follow:
SMILES	HPGD inh
CCCc1nc2c(C)ccc(C)c2c(N)c1CC	-6%
O=C(CSc1nnc(-c2cnccn2)n1Cc1ccco1)c1ccc(Cl)cc1	?
N#Cc1ccccc1Cn1c(=O)n(Cc2ccc(C(=O)NCc3ccco3)cc2)c(=O)c2ccccc21	-20%
Nc1nc(Nc2cccc(C(F)(F)F)c2)nc(C(F)(F)F)n1	-15%
COc1ccc(NC(=O)CSc2nnc(C3CC3)n2-c2ccccc2)cc1	0%
COCCN1C(=O)N[C@@H](c2ccccc2)[C@H](C(C)=O)[C@H]1C	-6%
COCC(=O)Nc1nnc(-c2cccs2)s1	?
CCOC(=O)N1CCN(Cc2nc(N)nc(Nc3ccc(OCC)cc3)n2)CC1	-5%
Fc1ccc(NCc2cn3ccccc3n2)cc1	-12%
O=C(COc1ccc2oc3c(c2c1)CCCC3)Nc1ccccn1	-4%
CCN(CC)c1nc2c(s1)C(=O)CC(C)(C)C2	-13%
Cc1ccc(-n2ncc3c(Nc4c(C)n(C)n(-c5ccccc5)c4=O)ncnc32)c(C)c1	-4%
Cc1ccc(S(=O)(=O)N2CCC(=O)N(CCOCc3cccc(Cl)c3)CC2)cc1	-18%
CN1CCN(C(=S)c2ccc(-c3cccc(Cl)c3Cl)o2)CC1	22µM*
CN1CCN(NC(=O)CN2C(=O)/C(=C/c3c(Cl)cccc3Cl)SC2=S)CC1	-19%
COCCCn1c(=N)c(C(=O)NCc2ccc3c(c2)OCO3)cc2c(=O)n3ccccc3nc21	?
Cc1c(C(=O)O)c2cc(O)ccc2n1-c1ccccc1	-13%
COc1ccc(NC(=O)N(C2CCCCC2)C(C)c2ccco2)c(OC)c1 (stereo not drawn)	-12%
COc1cccc(Nc2nc(-c3cccs3)nc3ccccc23)c1	?
CCNc1nc(NCC)nc(SCCOC(=O)COc2ccc(Cl)cc2Cl)n1	-28%
CC1=NN(C(=O)c2ccc(Cn3nc(C)cc3C)o2)C(O)(C(F)(F)F)C1 (stereo not drawn)	-12%
COC(=O)N/N=C/c1cn(Cc2ccc(Cl)cc2Cl)c2ccccc12	-4%
CC(C)(C)[C@]1(O)CCN2C[C@H]3c4ccccc4CCc4cccc(c43)[C@@H]2C1	1%
CCOC(=O)N1CCN(C(=O)CSc2nnc(-c3cc(OC)ccc3OC)o2)CC1	-21%
O=C(CSc1nnc(COc2ccccc2)n1Cc1ccco1)c1ccc(F)cc1	-19%
COCC(=O)NCc1ccc2c(c1)cc(C)n2C	25µM*
CCN[C@@H]1C[C@H](N)[C@H](O[C@H]2OC(CN)=CC[C@H]2N)[C@@H](O)[C@H]1O[C@H]1OC[C@@](C)(O)[C@@H](NC)[C@@H]1O	2%
CCOC(=O)C1=C(C)NC2=C(C1c1ccc([N+](=O)[O-])cc1)S(=O)(=O)c1ccccc12 (stereo not drawn)	-24%
Cc1ccc(OCC(=O)c2c(O)c3ccccc3oc2=O)cc1C	-15%
CCSc1nnc(NS(=O)(=O)c2ccc(C)cc2)s1	-22%
Cc1ccc(OC(C)C(=O)O)cc1C (stereo not drawn)	-9%
c1ccc(C2=Nn3c(nnc3-c3cc(-c4ccccc4)n[nH]3)SC2)cc1	-13%
O=C(c1ccc(Br)o1)N(Cc1ccccc1)Cc1ccccc1	-18%&-10%
CC(C)CNC(=O)COC(=O)c1ccccc1OCC(=O)Nc1ccc(Br)cc1	-5%
CC1CCN(S(=O)(=O)c2ccc(C(=O)Nc3ccccc3-c3nc4ccccc4[nH]3)cc2)CC1	?
O=C1N=C(N2CCOCC2)CS1	-2%
O=C(NCCCn1ccnc1)c1ccc2c(c1)OCCO2	-10%
CCOC(=O)CCc1c(C)nc(SCCCn2c(=O)[nH]c3ccccc32)c(C#N)c1C	16µM*
CCC1C(=O)CC(c2ccco2)NC1c1ccco1 (stereo not drawn)	-12%
Cc1cccc(-n2ncc3c(N4CCC(C)CC4)ncnc32)c1	28µM*

Some of these compounds in order of the HPGD inh value, ascending:
SMILES	HPGD inh
CCOC(=O)CCc1c(C)nc(SCCCn2c(=O)[nH]c3ccccc32)c(C#N)c1C	16µM*
COCC(=O)NCc1ccc2c(c1)cc(C)n2C	25µM*
Cc1cccc(-n2ncc3c(N4CCC(C)CC4)ncnc32)c1	28µM*

(list continues)
SMILES	HPGD inh
O=C(CNS(=O)(=O)c1cccs1)Nc1ccc2c(c1)OCCO2	-9%
COc1ccc(C(=O)N2CCSC2=S)cc1OC	-22%
CSc1nsc(SCC(=O)Nc2ccc(C(C)=O)cc2)n1	-26%
Cc1cc(C)c(NC(=O)C2CCCN2CCO)c(C)c1 (stereo not drawn)	-8%
Cc1ccccc1CSCCNC(=O)c1ccc(Cl)c(S(=O)(=O)N2CCOCC2)c1	-12%
Cc1ccc(S(=O)(=O)CCC(=O)O)cc1C	-2%
Cc1ccccc1OCc1nc2ccccc2c(=O)n1/N=C/c1cn[nH]c1-c1ccc(Br)cc1	32µM*
Cc1nn(-c2ccc(C(=O)O)cc2)c(C)c1Oc1ccccc1O	14µM*
CC(Oc1ccccc1)C(=O)Nc1ccc(S(=O)(=O)N2CCOCC2)cc1 (stereo not drawn)	-6%
Cc1ccc2cc(CN(CCN3CCCC3)C(=O)Nc3ccc(F)cc3)c(=O)[nH]c2c1C	-9%
CC1=CN2C(=N)/C(=C/c3ccco3)C(=O)N=C2S1	-21%
CC(=O)OC1CC(O)C(C)(C)C2CC(OC(C)=O)[C@]3(C)C(CC[C@@]4(C)C(c5ccoc5)OC(=O)C5OC534)[C@]12C (stereo partly drawn)	8%
Cc1nc(NCCc2ccc(F)cc2)c(C#N)c(C)c1[N+](=O)[O-]	-9%
CCn1c(=N)c(C(=O)OC)cc2c(=O)n3ccccc3nc21	?
N=c1c2c(ncn1Cc1ccco1)Oc1c(ccc3ccccc13)C2c1ccccc1 (stereo not drawn)	-23%
O=C(NC1CCCC1)c1cnn2c(C(F)(F)F)cc(-c3ccco3)nc12	?
Clc1ccc2c(N/N=C/c3cccc(Br)c3)ccnc2c1	-21%
O=c1c2ccccc2c(-c2ccc(O)cc2)nn1-c1cccc(C(F)(F)F)c1	-10%
CC(C)(C)OC(=O)NCCC(=O)Oc1ccc2ccc(=O)oc2c1	?
Cc1nc(SCC(=O)Nc2cccc(Cl)c2)n[nH]1	3%
Cc1cccn2c(=O)c(/C=C(\C#N)S(=O)(=O)c3ccccc3)c(N3CCC(C(N)=O)CC3)nc12	28µM*
O=C(Nc1ccccc1F)C1CC1c1ccccc1 (stereo not drawn)	-15%
Cc1ccccc1Nc1n[nH]c(C)c1[N+](=O)[O-]	?
O=C(Nc1cccc2ncccc12)C(Cl)(Cl)Cl	-18%
Cn1c(Cl)c(C(=O)Nc2ccc(Cl)cc2)c2ccccc21	-6%
Cn1c(Sc2ccc([N+](=O)[O-])cc2C(F)(F)F)nnc1-c1ccccc1	-12%
O=C(CCCc1cccs1)Nc1nc(-c2ccc(F)cc2)cs1	-7%
O=C(NCCN1CCOCC1)c1ccncc1	-1%
Cc1nc2c(sc3nc4c(cc32)COC(C)(C)C4)c(=O)n1Cc1ccccc1	-16%
Cc1cc(C)c(C(N)=O)c(Nc2cccc(Cl)c2)n1	-20%
CC(C)C(c1nnnn1C1CCCC1)N1CCCCC1 (stereo not drawn)	-8%
COc1ccc(-c2nnc(SCc3cccnc3)o2)cc1	-20%
CC(=O)c1ccc(N2C(=O)[C@@H]3C(C(=O)CCN4C(=O)c5ccccc5C4=O)=NN[C@@H]3C2=O)cc1	-23%
Cc1ccc2cc3cc(C(=O)NCCCN4CCCCCC4)oc3nc2c1	?
COc1ccc(S(N)(=O)=O)cc1C(=O)NCC1(N2CCCCC2)CCCCC1	-4%
O=C(COc1ccc(/C=N/NC(=O)c2cc3ccccc3o2)cc1Cl)Nc1ccccc1	?
CCCCCOC(=O)C1C2C=CC3(CN(c4ccccc4C)C(=O)C13)O2 (stereo not drawn)	-4%
Cc1cccc(NC(=O)c2cc3c([nH]c4ccccc43)c(C)n2)c1C	-23%
NNC(=O)CCSc1ccccc1	-1%
Cc1cc(C(=O)Nc2c(C)nn(Cc3ccc(F)cc3)c2C)on1	-3%
Cc1cc(C)cc(OCC(O)CN2CCC(CN3C(=O)c4cccc5cccc(c45)C3=O)CC2)c1 (stereo not drawn)	-5%
CCOc1ccc(OCCn2ccnc2)cc1	-13%

Filtered by structure: those above containing a CF3 group.
SMILES	HPGD inh
Nc1nc(Nc2cccc(C(F)(F)F)c2)nc(C(F)(F)F)n1	-15%
CC1=NN(C(=O)c2ccc(Cn3nc(C)cc3C)o2)C(O)(C(F)(F)F)C1 (stereo not drawn)	-12%
O=C(NC1CCCC1)c1cnn2c(C(F)(F)F)cc(-c3ccco3)nc12	?
O=c1c2ccccc2c(-c2ccc(O)cc2)nn1-c1cccc(C(F)(F)F)c1	-10%
Cn1c(Sc2ccc([N+](=O)[O-])cc2C(F)(F)F)nnc1-c1ccccc1	-12%

Only part of the results is shown. The share of hits here may be higher or lower than overall.
